# Source: PubChem BioAssay
# FGF22 binding = shifts melting point of recombinant human FGF22; recombinant FGF22 thermal shift, SYPRO orange fluorescence; percent of sucrose octasulfate shift, DMSO zero; 340,000 compounds, 1.5% hits; Q9HCT0; calls only at 9.99 µM;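 active = melting point raised past a set limit in the mean and every replicate; three in four hits are not shown here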
# Target sequence (Q9HCT0 whole entry, looked up): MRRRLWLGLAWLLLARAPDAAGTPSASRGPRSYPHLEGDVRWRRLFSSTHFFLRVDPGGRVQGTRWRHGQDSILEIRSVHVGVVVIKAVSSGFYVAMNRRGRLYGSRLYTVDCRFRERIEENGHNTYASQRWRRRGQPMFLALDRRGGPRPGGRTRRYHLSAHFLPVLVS
# Ecoli rRNA inh = inhibitors of bacterial rRNA selective over humanized ribosomes. E. coli WT GFP vs humanized-ribosome RFP mutants, fluorescence, 24 h; hits give low values; DMSO median 0, no signal -100. GFP signal change (wild-type ribosome), % (test concentration not listed). 350,000 compounds, 1.6% hits;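 active = significant combined selectivity score with lowered wild-type GFP, culture density cut under 30%, mutant RFP and density less affected; inactive = any of these conditions unmet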; also: one replicate is shown; some compounds called inactive have numbers as strong as hits
# AF4-AF9 inh = inhibitors of human MLL-AF4/AF9 interaction; P42568; AlphaScreen, biotin-AF4 peptide binding to FLAG-AF9; inhibition, % at 10 µM; 350,000 compounds, 0.47% hits;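 active = every replicate reaching a set inhibition limit, whatever the replicate mean, cut at about 25% in these data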;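 also: 0% = plate neutral control median and 100% = total signal loss; the record names both 10 and 1 µM as test concentration; the first replicate is given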
# Target sequence (P42568 whole entry, looked up): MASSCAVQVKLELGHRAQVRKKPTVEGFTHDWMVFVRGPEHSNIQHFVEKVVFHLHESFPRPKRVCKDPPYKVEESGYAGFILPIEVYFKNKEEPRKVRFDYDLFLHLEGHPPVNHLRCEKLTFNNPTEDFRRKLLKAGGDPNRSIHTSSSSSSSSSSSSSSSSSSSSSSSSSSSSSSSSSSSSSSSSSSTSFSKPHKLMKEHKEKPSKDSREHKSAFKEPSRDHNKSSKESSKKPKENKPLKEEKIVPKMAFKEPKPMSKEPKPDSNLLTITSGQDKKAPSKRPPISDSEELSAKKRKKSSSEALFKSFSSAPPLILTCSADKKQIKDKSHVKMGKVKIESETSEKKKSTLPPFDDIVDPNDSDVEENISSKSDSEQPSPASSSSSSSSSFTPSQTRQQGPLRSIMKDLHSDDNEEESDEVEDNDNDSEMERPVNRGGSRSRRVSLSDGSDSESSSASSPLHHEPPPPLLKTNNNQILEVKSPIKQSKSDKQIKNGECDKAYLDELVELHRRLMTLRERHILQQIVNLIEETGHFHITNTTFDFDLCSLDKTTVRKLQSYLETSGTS
# Ecoli rRNA inh OD600 = also measured in Ecoli rRNA inh; calls as there; OD600 change, %; measured here: OD600 growth;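 optical density of the mix in the first replicate; 0 = DMSO median and -100 = no signal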
# Ecoli rRNA inh RFP = recorded beside Ecoli rRNA inh, whose call it bears; RFP signal change, %; measured here: RFP humanized mutant strains;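 first replicate; 0 = DMSO median and -100 = no signal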
# Numbers without * were called inactive; i = inactive; + = active, no number; & = joins results of further samples. These rows are one share of the data; rates above refer to the full screens.
# Fields – FGF22 binding	Ecoli rRNA inh	Ecoli rRNA inh OD600	Ecoli rRNA inh RFP	AF4-AF9 inh
> COc1ccc(NC(=O)Nc2ccc3c(c2)C(=O)N([C@H](C)CO)C[C@H](C)[C@@H](CN(C)C(=O)NC(C)C)OCCCC[C@@H](C)O3)cc1
 : i	2	-5	-1.4	-1.0
> CNC[C@H]1OCCCC[C@@H](C)Oc2ccc(NC(=O)NC(C)C)cc2C(=O)N([C@@H](C)CO)C[C@H]1C
 : i	3	0	-2.1	-3.3
> COc1ccc(NC(=O)Nc2ccc3c(c2)CC(=O)N([C@H](C)CO)C[C@H](C)[C@@H](CN(C)S(C)(=O)=O)O3)cc1
 : i	3	13	-0.6	-1.4
> C[C@@H]1CN([C@H](C)CO)C(=O)c2cc(N(C)C)ccc2O[C@@H]1CN(C)S(C)(=O)=O
 : i	4	0	-1.3	2.1
> COCC(=O)N[C@@H]1CC[C@@H](CC(=O)NCc2ccccc2OC)O[C@H]1CO
 : i	1	1	0.3	-14
> C[C@@H]1CN([C@@H](C)CO)C(=O)Cc2cc(NS(=O)(=O)c3ccc(F)cc3)ccc2O[C@H]1CN(C)S(=O)(=O)c1ccccc1
 : i	-1	-7	2.2	-2.5
> CN(Cc1ccccc1)C(=O)c1ccc(Nc2nc(C(N)COCc3ccccc3)cs2)nc1 (configuration not stated)
 : i	-26	-34	-9.4	6.3
> C[C@@H]1CN([C@@H](C)CO)S(=O)(=O)c2ccc(-c3cccnc3)cc2O[C@@H]1CN(C)C(=O)C1CCCCC1
 : i	3	16	2.9	4.6
> O=C(OCCOc1ccc(Cl)cc1)c1cc(S(=O)(=O)N2CCCCC2)ccc1N1CCOCC1
 : i	3	-13	-1.8	2.6
> C[C@@H]1CCCCO[C@H](CN(C)C(=O)Nc2ccccc2)[C@@H](C)CN([C@H](C)CO)C(=O)c2cc(NC(=O)Nc3ccccc3)ccc2O1
 : i	4	3	2.4	-2.3
> O=C(COC(=O)c1ccccc1Cl)NCc1cccs1
 : i	2	-3	-1.1	0.7
> O=S(=O)(c1ccc(N=C2NN=C(c3cc(F)ccc3F)CS2)cc1)N1CCOCC1
 : i	1	1	-3.9	-2.4
> Cc1ccccc1S(=O)(=O)N1C[C@H](O)COC[C@H]2O[C@@H](CC(=O)NCc3ccccc3Cl)CC[C@@H]21
 : i	4	-2	1.0	3.8
> Cc1cccc(OCC(=O)Nc2ccc(C(=O)Nc3ccccc3C(=O)O)cc2)c1
 : i	1	1	-2.3	-5.9
> C[C@@H]1CN([C@@H](C)CO)C(=O)Cc2cc(NC(=O)C3CC3)ccc2O[C@H]1CN(C)S(=O)(=O)c1ccc(Cl)cc1
 : i	0	-11	1.3	0.2
> C[C@H]1CN([C@@H](C)CO)C(=O)Cc2cc(NC(=O)Nc3ccc4c(c3)OCO4)ccc2O[C@@H]1CN(C)S(=O)(=O)c1ccc(Cl)cc1
 : i	-4	-12	-3.8	5.2
> Cc1ccc(S(=O)(=O)N2C[C@H]3[C@H]4C(=O)N(Cc5ccccc5)C(=O)[C@H]4CC(=O)[C@H]3[C@@H]2c2cccc3ccccc23)cc1
 : i	0	2	-0.9	-0.7
> O=C(C[C@H]1CC[C@@H](NC(=O)c2ccccc2)[C@@H](CO)O1)NCc1ccc(Oc2ccccc2)cc1
 : i	-1	-15	0.4	0.1
> C[C@@H]1CCCCO[C@H](CN(C)CC2CCCCC2)[C@@H](C)CN([C@H](C)CO)C(=O)c2cc(NC(=O)c3ccncc3)ccc2O1
 : i	1	4	0.8	-4.3
> COc1cccc(-c2cnc3c(c2)C(=O)N([C@H](C)CO)C[C@@H](C)[C@@H](CN(C)Cc2cccnc2)O3)c1
 : i	-5	0	-2.7	-1.7
> COc1cc(CCC(=O)OCC(=O)N(CC(C)C)C2CCS(=O)(=O)C2)cc(OC)c1OC (configuration not stated)
 : i	-2	0	-1.6	-1.4
> C[C@@H]1CN([C@H](C)CO)C(=O)Cc2cc(N(C)C)ccc2O[C@H]1CN(C)Cc1ccc(C(=O)Nc2ccccc2N)cc1
 : i	3	7	-0.2	6.4
> COc1ccc(S(=O)(=O)N(C)C[C@@H]2Oc3ccc(NC(=O)Cn4cnnn4)cc3C(=O)N([C@H](C)CO)C[C@@H]2C)cc1
 : i	3	-2	-2.2	-1.4
> CO[C@H]1CN(C)C(=O)c2cc(NC(=O)C3CC3)ccc2OC[C@@H](C)N(C(=O)c2cnccn2)C[C@@H]1C
 : i	-2	-20	0.8	1.6
> COc1ccccc1NS(=O)(=O)c1ccc(C)c(C(=O)NCC(c2cccs2)N2CCOCC2)c1 (configuration not stated)
 : i	3	0	-0.5	0.5
> COc1ccc(C#Cc2cnc3c(c2)C(=O)N([C@H](C)CO)C[C@H](C)[C@@H](CN(C)CC2CCCC2)O3)cc1
 : i	3	0	-2.7	-2.8
> CCN1CCC(O)(C(C(=O)O)c2ccccc2)CC1 (configuration not stated)
 : i	25	16	3.9	4.1
> COc1ccc(NC(=O)Nc2ccc3c(c2)CC(=O)N([C@@H](C)CO)C[C@H](C)[C@@H](CN(C)C(=O)Nc2ccccc2)O3)cc1
 : i	-4	-20	-0.6	3.7
> C[C@H]1CN([C@@H](C)CO)C(=O)c2cc(C3=CCCC3)cnc2O[C@H]1CN(C)C(=O)c1ccc(F)cc1
 : i	11	22	-3.4	-3.0
> COc1ccc(/C(N)=N/OC(=O)CN(C)S(=O)(=O)c2ccc(C)cc2)cc1
 : i	-24	-36	-6.1	-0.4
> COc1ccc2c(c1)OC(=O)CC2c1ccccc1OC (configuration not stated)
 : i	-31	-28	-6.4	-2.0
> C[C@@H]1CN([C@@H](C)CO)C(=O)c2cc(-c3cccc(C#N)c3)cnc2O[C@H]1CN(C)Cc1cncnc1
 : i	5	5	-2.6	-0.2
> Cc1c(NC(=O)CCc2ccc(S(=O)(=O)N3CCOCC3)cc2)c(=O)n(-c2ccccc2)n1C
 : i	11	4	2.4	-0.8
> CCCNC(=O)NC[C@@H]1[C@@H](c2ccc(C3=CCCC3)cc2)[C@H](CO)N1C(=O)CC
 : i	-1	-1	1.2	-7.7
> COc1ccccc1NC(=O)N[C@H]1CC[C@@H](CC(=O)N2CCC(Cc3ccccc3)CC2)O[C@H]1CO
 : i	-3	-19	2.0	1.1
> CO[C@@H]1CC[C@@H]2CCN(C)C(=O)[C@@H](C)N(C)C(=O)c3cc(C#N)ccc3OC[C@@H]1O2
 : i	-1	2	-1.2	0.2
> O=C(Nc1ccc(Cl)cc1)N1C[C@@H]2[C@H](c3ccccc31)[C@@H](CO)N2CC1CCCC1
 : i	-48	-78	5.3	5.8
> C[C@H](CO)N1C[C@H](C)[C@H](CN(C)Cc2ccncc2)Oc2ccc(NS(=O)(=O)c3cccs3)cc2C1=O
 : i	3	-4	-0.4	-2.5
> C[C@H](CO)N1C[C@H](C)[C@@H](CN(C)S(=O)(=O)c2ccccc2)OCc2cnnn2CCCC1=O
 : i	8&-1	8&-2	2.0&2.5	-3.0&-0.3&-0.7
> C[C@@H]1CN([C@H](C)CO)S(=O)(=O)c2ccc(C3=CCCCC3)cc2O[C@H]1CN(C)C(=O)CN(C)C
 : +	0	4	-2.0	0.0
> O=C(CCc1ccccc1)N[C@@H]1c2ccccc2CC[C@@H]1OCc1ccccc1
 : i	23	16	1.5	-3.2
> CNC[C@H]1Oc2cc(C#Cc3ccccc3)ccc2S(=O)(=O)N([C@@H](C)CO)C[C@@H]1C
 : i	-2	-5	14	16
> Cc1ccc(NC(=O)CN(C)C(=O)Cc2ccc3c(c2)CCC3)cc1
 : i	2	5	0.1	2.5
> O=C(C[C@@H]1C=C[C@@H](NC(=O)Nc2cc(F)ccc2F)[C@@H](CO)O1)NCc1ccccn1
 : i	3	-3	-2.3	-1.1
> C[C@@H](NS(=O)(=O)c1ccc(Br)cc1F)[C@@H](O)c1ccccc1
 : i	2	-6	-1.5	-0.3
> CNC[C@H]1OCc2cnnn2CCCC(=O)N([C@@H](C)CO)C[C@@H]1C
 : i	2&23	-2&12	0.5&2.8	-2.2&-0.6
> COC(=O)[C@H]1[C@H](CO)[C@H]2Cn3c(ccc(-c4ccc(F)cc4)c3=O)[C@H]2N1C(=O)C1CC1
 : i	4	0	-1.0	-2.5
> Cc1noc(C)c1NC(=O)N(C)C[C@H]1OCCCC[C@H](C)Oc2ccc(NS(=O)(=O)c3ccc(F)cc3)cc2C(=O)N([C@@H](C)CO)C[C@H]1C
 : i	-2	0	-0.5	1.3
> CN(C)C(=O)c1ccc(-c2ccccc2[C@@H]2[C@@H](C#N)N(C(=O)C3CCCCC3)[C@@H]2CO)cc1
 : i	4	20	7.5	1.5
> CN(C)C(=O)C[C@H]1CC[C@@H]2[C@@H](COc3ccc(NS(=O)(=O)c4cccc(F)c4)cc3C(=O)N2C)O1
 : i	-2	2	-1.9	-0.9
> COc1ccc(S(=O)(=O)Nc2ccc3c(c2)C(=O)N([C@@H](C)CO)C[C@@H](C)[C@@H](CN(C)Cc2ccccc2)O3)cc1
 : i	0	1	0.7	0.3
> C/C=C/c1cnc2c(c1)C(=O)N([C@@H](C)CO)C[C@@H](C)[C@H](CN(C)Cc1cccc(C(=O)O)c1)O2
 : i	2	12	0.5	-4.0
> Cc1ccc(S(=O)(=O)N2CC3(O)CN(C(=O)OC(C)C)N(C(=O)OC(C)C)CC3(OC(=O)NCc3ccccc3)C2)cc1 (configuration not stated)
 : i	-3	-11	-0.2	-0.2
> CC(C)C#Cc1ccc2c(c1)O[C@@H](CN(C)C(=O)Nc1ccccc1)[C@@H](C)CN([C@@H](C)CO)S2(=O)=O
 : i	-1	-9	4.6	6.3
> C[C@H](NC(=O)C[C@@H]1CC[C@H](NC(=O)C2CCC2)[C@H](CO)O1)c1ccccc1
 : i	3	4	-1.8	-0.6
> COCCNC(=O)C1(C)CCCN(CCOc2ccc(Cl)cc2)C1 (configuration not stated)
 : i	7	14	1.3	-8.5
> COC(=O)[C@@H]1[C@@H](CO)[C@@H]2Cn3c(ccc(-c4cccnc4)c3=O)[C@@H]2N1Cc1cccc(F)c1
 : i	-4	-5	-1.2	-3.2
> O=C(Nc1ccc(N2CCOCC2)cc1)c1csc([C@H]2C[C@H](O)[C@@H](CO)O2)n1
 : i	3	8	-1.4	-1.1
> COc1ccc(C(=O)NNC(=O)c2ccc3ccccc3c2)cc1
 : i	-1	9	0.4	-2.6
> C[C@@H]1CN([C@@H](C)CO)C(=O)c2cccc(NC(=O)c3cnccn3)c2O[C@@H]1CN(C)CC1CCCCC1
 : i	3	18	-5.2	0.2

# Looked up above.
# In Ecoli rRNA inh, `COc1ccc(C(=O)NNC(=O)c2ccc3ccccc3c2)cc1` shows -1
# In Ecoli rRNA inh OD600, `CNC[C@H]1Oc2cc(C#Cc3ccccc3)ccc2S(=O)(=O)N([C@@H](C)CO)C[C@@H]1C` shows -5
# In Ecoli rRNA inh OD600, `C/C=C/c1cnc2c(c1)C(=O)N([C@@H](C)CO)C[C@@H](C)[C@H](CN(C)Cc1cccc(C(=O)O)c1)O2` shows 12
# In Ecoli rRNA inh, `Cc1noc(C)c1NC(=O)N(C)C[C@H]1OCCCC[C@H](C)Oc2ccc(NS(=O)(=O)c3ccc(F)cc3)cc2C(=O)N([C@@H](C)CO)C[C@H]1C` shows -2

# Two compounds from above, reduced to Ecoli rRNA inh, AF4-AF9 inh and Ecoli rRNA inh RFP:
SMILES	Ecoli rRNA inh	AF4-AF9 inh	Ecoli rRNA inh RFP
COc1ccc(C#Cc2cnc3c(c2)C(=O)N([C@H](C)CO)C[C@H](C)[C@@H](CN(C)CC2CCCC2)O3)cc1	3	-2.8	-2.7
CCN1CCC(O)(C(C(=O)O)c2ccccc2)CC1 (configuration not stated)	25	4.1	3.9

# Next compounds.
# Fields – FGF22 binding	Ecoli rRNA inh	Ecoli rRNA inh OD600	Ecoli rRNA inh RFP	AF4-AF9 inh
> CCNC(=O)C[C@@H]1CC[C@H](NC(=O)C2CCC2)[C@H](CO)O1
 : i	1	2	-0.9	-2.5
> O=C(c1cccc(F)c1)N1CC(=O)N2[C@H](CO)[C@@H](c3ccc(-c4ccccc4F)cc3)[C@@H]2C1
 : i	-47	-69	-5.5	-1.1
> O=C(N[C@H]1CC[C@@H](CC(=O)N2CCN(c3ccccc3)CC2)O[C@@H]1CO)c1ccncc1
 : i	-4	-5	1.1	-0.6
> CS(=O)(=O)Nc1ccc2c(c1)[C@H]1C[C@@H](CC(=O)NCC3CC3)O[C@@H](CO)[C@H]1O2
 : i	5	12	-0.8	-1.5
> C[C@H]1CCCCO[C@@H](CN(C)CC2CCCCC2)[C@@H](C)CN([C@@H](C)CO)C(=O)c2cc(NC(=O)Nc3ccc(F)cc3)ccc2O1
 : i	-27	-39	32	6.2
> COCC(=O)N1[C@@H]2c3ccc(/C=C/c4ccccc4)c(=O)n3C[C@H]1[C@H](CO)[C@H]2C(=O)N1CCOCC1
 : i	-1	-1	-1.3	2.3
> CCCC#Cc1ccc([C@@H]2[C@@H](CO)N3C(=O)CN(C(=O)Nc4cccc(F)c4)C[C@H]23)cc1
 : i	-36	-62	7.6	1.7
> CCC(=O)N(C)C[C@H]1Oc2ncc(C3=CCCC3)cc2C(=O)N([C@H](C)CO)C[C@@H]1C
 : i	-2	-2	-3.4	-2.0
> COc1ccc2c3c([nH]c2c1)[C@@H](CO)N(C(=O)Nc1c(C)noc1C)CC31CCN(CC2CC2)CC1
 : i	4	4	-2.9	6.1
